ALR H2O2 inh: inhibitors of human sulfhydryl oxidase ALR; AID 485317; actives 3.8% (n = 290,000); P55789; purified ALR, DTT oxidation, H2O2 HRP-luminol luminescence; inhibition, % (no concentration beside the values);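 active = mean and each replicate at 75% or more; inconclusive = only one of the two met; inactive = neither met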;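 also: stock transfer was 7.5 nL into about 7.5 µL; 0% = neutral wells and 100% = wells with inactivated enzyme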
Target sequence (P55789 whole entry, looked up): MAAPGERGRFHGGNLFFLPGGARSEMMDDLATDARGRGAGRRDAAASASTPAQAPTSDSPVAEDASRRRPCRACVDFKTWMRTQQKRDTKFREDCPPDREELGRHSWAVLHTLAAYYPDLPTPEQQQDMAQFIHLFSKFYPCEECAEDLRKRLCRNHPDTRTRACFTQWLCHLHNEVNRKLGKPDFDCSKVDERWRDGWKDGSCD
T cruzi inh: T. cruzi replication inhibition | T. cruzi beta-gal in NIH3T3, luminescence, 90 h | inhibition, % (test concentration not listed) | actives 1.4% (n = 300,000);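 active = mean inhibition across valid replicates above about 55%, limit read from the data; inconclusive = mean below that limit but half or more replicates reach it; inactive = mean below it, under half of replicates reach it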;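 also: signal also drops with host cell toxicity which is not excluded here; 0% = plate median of DMSO wells and 100% = zero luminescence signal; higher percent means less beta-gal luminescence so fewer parasites; stock transfer was 50 nL into about 50 µL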
FGF22 binding: binders of recombinant human FGF22 by thermal shift; Q9HCT0; SYPRO orange fluorescence; percent of sucrose octasulfate shift, DMSO zero; calls only at 9.99 µM; actives 1.5% (n = 340,000); AID 651658;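 active = melting point raised past a set limit in the mean and every replicate; inconclusive = no clear call; three in four hits are not shown here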
Target sequence (Q9HCT0 whole entry, looked up): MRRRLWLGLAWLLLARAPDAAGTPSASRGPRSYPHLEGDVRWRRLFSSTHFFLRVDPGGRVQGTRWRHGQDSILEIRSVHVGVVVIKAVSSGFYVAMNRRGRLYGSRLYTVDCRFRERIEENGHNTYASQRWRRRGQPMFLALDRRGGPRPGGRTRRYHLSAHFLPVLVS
Beta cell apopt: beta cell apoptosis inhibition | INS-1E cytokine-induced death, ATP luminescence, 48 h; percent of positive-control rescue, neutral wells zero | protection from apoptosis, % (concentration not given with the values) | actives 0.8% (n = 300,000) | AID 435005;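 active = all replicates at 75% or more, or half of them and the mean; inconclusive = half reach 75% but not the mean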;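 also: 0% = cytokine-treated negative control wells and 100% = positive control rescue; higher means more ATP so stronger rescue from cytokine killing; wells of about 40 µL received 100 nL stock; the first replicate is given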
RanGTP-Impb inh: disruptors of Ran-importin-beta complex formation – biochemical, FRET, CFP-Ran, YFP-importin-beta, homogeneous, primary screen. cell-free CFP-Ran/YFP-importin-beta FRET ratio. inhibition, % (test concentration not listed). actives 1.1% (n = 300,000). AID 2216;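 active = most replicates above 15%; inconclusive = exactly half above 15%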;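 also: 0% = DMSO wells and 100% = Ran loaded with GDP instead of GTP; wells of about 40 µL received 100 nL stock; the first replicate is given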
AF4-AF9 inh: blocks AF4 peptide binding to human AF9; inhibition, % at 10 µM; AID 651704; P42568; AlphaScreen, biotin-AF4 peptide binding to FLAG-AF9; actives 0.47% (n = 350,000);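 active = every replicate reaching a set inhibition limit, whatever the replicate mean, cut at about 25% in these data; inconclusive = mean inhibition reaches that limit but some replicates miss it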;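 also: 0% = plate neutral control median and 100% = total signal loss; the record names both 10 and 1 µM as test concentration; the first replicate is given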
Target sequence (P42568 whole entry, looked up): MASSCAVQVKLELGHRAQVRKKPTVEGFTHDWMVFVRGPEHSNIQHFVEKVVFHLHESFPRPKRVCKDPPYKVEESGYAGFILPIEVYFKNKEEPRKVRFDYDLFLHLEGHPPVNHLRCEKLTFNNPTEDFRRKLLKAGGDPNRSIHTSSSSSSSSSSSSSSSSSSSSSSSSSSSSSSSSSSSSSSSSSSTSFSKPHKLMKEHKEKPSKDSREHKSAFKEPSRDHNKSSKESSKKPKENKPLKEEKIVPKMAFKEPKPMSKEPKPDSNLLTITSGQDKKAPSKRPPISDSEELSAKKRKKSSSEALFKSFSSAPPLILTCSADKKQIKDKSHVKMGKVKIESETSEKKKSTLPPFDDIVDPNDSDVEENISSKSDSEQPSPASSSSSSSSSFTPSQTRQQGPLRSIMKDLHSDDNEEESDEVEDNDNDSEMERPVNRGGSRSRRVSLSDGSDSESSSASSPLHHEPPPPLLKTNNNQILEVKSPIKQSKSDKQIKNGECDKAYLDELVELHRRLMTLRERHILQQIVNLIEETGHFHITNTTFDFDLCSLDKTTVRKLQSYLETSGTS
Calb FLC: C. albicans growth modulation with fluconazole; C. albicans CaCi-2 (fluconazole-resistant clinical isolate) + fluconazole, Alamar Blue growth, 48 h; growth inhibition, % (test concentration not listed); actives 0.57% (n = 300,000);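 active = most replicates above 75%; inconclusive = exactly half above 75%; inactive = most below 75%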;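 also: all wells also contain fluconazole at 8 µg/ml as a sub-toxic cotreatment; 0% = median of DMSO wells and 100% = median of geldanamycin control wells; wells of about 8 µL received 7.5 nL stock; the first replicate is given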
Ecoli rRNA inh: inhibits bacterial ribosomal RNA function over humanized ribosomes | actives 1.6% (n = 350,000) | GFP signal change (wild-type ribosome), % (no concentration beside the values) | E. coli WT GFP vs humanized-ribosome RFP mutants, fluorescence, 24 h; hits give low values; DMSO median 0, no signal -100;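 active = significant combined selectivity score with lowered wild-type GFP, culture density cut under 30%, mutant RFP and density less affected; inactive = any of these conditions unmet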; also: one replicate is shown; some compounds called inactive have numbers as strong as hits
Ecoli rRNA inh OD600: second read-out of Ecoli rRNA inh, no call of its own (marks repeat the call); OD600 change, %; measured here: OD600 growth;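 optical density of the mix in the first replicate; 0 = DMSO median and -100 = no signal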
Ecoli rRNA inh RFP: recorded beside Ecoli rRNA inh, whose call it bears; RFP signal change, %; measured here: RFP humanized mutant strains;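 first replicate; 0 = DMSO median and -100 = no signal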
The depositor's hits bear a star; i = inactive; ? = inconclusive; . = not tested or not shown. A portion of the library, so the mix of outcomes need not match the whole.

no.	canonical_smiles	ALR H2O2 inh	T cruzi inh	FGF22 binding	Beta cell apopt	RanGTP-Impb inh
1	CCOC(=O)C1(Cc2cccc(OC)c2)CCCN(Cc2cnn(C)c2)C1 (stereo not given)	-4	-5	i	-5	0.2
2	COc1ccc(N2C(=O)CC(Sc3ncccc3C(=O)O)C2=O)cc1 (stereo not given)	49	-14	.	-2	3.2
3	Cc1cc2occ(CC(=O)N(C)CC(=O)Nc3ccccc3Br)c2cc1C	-21	-3	.	-3	-1.7
4	Cc1cnn(-c2cc(N/N=C/c3cccc(F)c3)ncn2)c1	-1	-7	i	-6	-0.2
5	CCOC(=O)c1c[nH]c(=O)c(Br)c1O	-10	-9	.	2	-2.5
6	O=C(NC1CCCCC1)[C@@H]1CC=C[C@@H]2CCN(C3CCCCC3)C(=O)[C@@H]21	59	1	i	2	1.4
7	COC(=O)CCCC1=CC2=CC(=O)C(C)(OC(=O)CCc3ccccc3)C(=O)C2=CO1 (stereo not given)	-8	-2	.	-2	-19
8	O=C(N/N=C/c1ccc(-c2cccc(C(F)(F)F)c2)o1)c1ccccc1Br	-3	18	.	3	?
9	O=[S@]1Oc2ccccc2-c2ccccc21	22	-19	i	-3	0.0
10	COc1cc(C(=O)Nc2cccc3c2CCCC3)cc(OC)c1OC	-8	-11	i	6	-1.3
11	Cc1ccc(NC(=O)CN(C)C(=O)CNC(=O)c2sc3ccccc3c2Cl)cc1	-9	3	i	.	3.2
12	CCOc1cc([C@@H]2C[C@H]3CN(c4ccccc4)C(=O)[C@]34CCCN24)ccc1OC	-4	-5	i	21	-1.8
13	COc1ccc(/C=N/n2cnc3c([nH]c4ccccc43)c2=O)cc1COc1ccccn1	9	11	.	-11	-3.9
14	Cc1csc(SCC(=O)Nc2ccccc2)n1	25	0	i	0	3.8
15	CCOC(=O)C1(Cc2cccc(Cl)c2)CCCN(C(=O)C(C)(C)C)C1 (stereo not given)	.	-16	i	0	?

no.	AF4-AF9 inh	Calb FLC	Ecoli rRNA inh	Ecoli rRNA inh OD600	Ecoli rRNA inh RFP
1	2.0	-6	2	1	1.8
2	.	-2	.	.	.
3	-0.8	-1	-30	-36	-6.4
4	-2.0	-12	-3	-2	1.9
5	.	5	.	.	.
6	-5.7	-1	8	3	0.1
7	.	21	.	.	.
8	.	-5	.	.	.
9	-1.4	-4	-14	-10	-8.2
10	-0.7	2	-12	-12	1.1
11	-0.2	5	1	1	4.6
12	1.7	15	8	3	5.6
13	.	-3	.	.	.
14	-3.9	2	5	10	-0.9
15	-1.7	2	2	-1	-3.2

Remaining list, next part:
no.	canonical_smiles	ALR H2O2 inh	T cruzi inh	FGF22 binding	Beta cell apopt	RanGTP-Impb inh
16	CCC(CC)NC(=O)c1ccccc1Oc1ccccc1	6	3	.	-2	2.8
17	COc1cc(NC(=O)c2ccccc2Cl)c(OC)cc1NC(=O)CN1CCCCC1	-15	18	i	-1	-0.4
18	NS(=O)(=O)c1ccc(CNC(=O)c2ccc(NS(=O)(=O)c3cccs3)cc2)cc1	4	.	i	-9	.
19	CCCOc1ccc(/C=N/NC(=O)CSc2ccccn2)cc1OC	.	10	i	0	0.8
20	Cc1cc(Cl)ccc1Oc1nccc(N(C)C)c1C#N	0	9	i	1	6.9
21	COc1ccc(CCNC(=O)CCS(=O)(=O)c2ccc3c(c2)NC(=O)CO3)cc1OC	-25	-21	i	1	?
22	CCCC(=O)Nc1nc2ccc3nc(C)sc3c2s1	-22	-21	.	8	-1.3
23	COc1ccc(OC)c(NC(=O)CNC(=O)Cn2cnc3ccccc3c2=O)c1	2	12	.	-2	0.6
24	S=C(Nc1cccc(Cl)c1Cl)NC1CCN(Cc2ccccc2)CC1	31	.	i	-2	.
25	Cc1ccc(-n2c(SCC(=O)Nc3cc(S(=O)(=O)N4CCOCC4)ccc3Cl)nc3ccccc3c2=O)cc1	.	50	i	11	6.2
26	c1ccc(-c2nc(-n3ccnc3)nc(-n3ccnc3)n2)cc1	10	1	.	16	-1.0
27	Cc1ccc(C(=O)Nc2ccccc2C(=O)O)cc1S(=O)(=O)Nc1ccccc1	25	-10	.	.	?
28	CCOC(=O)C1=C(N)OC(CCl)=C(C#N)C1c1ccsc1 (stereo not given)	.	-8	.	-10	-0.7
29	Cn1c(=O)c2c(ncn2CC(=O)N2CCN(S(=O)(=O)c3ccccc3)CC2)n(C)c1=O	1	7	i	-6	-4.7
30	CC1(C)Cc2c(ccc3ccccc23)/C(=C/C#N)N1	-10	34	.	1	-3.5

no.	AF4-AF9 inh	Calb FLC	Ecoli rRNA inh	Ecoli rRNA inh OD600	Ecoli rRNA inh RFP
16	.	50	.	.	.
17	-1.1	-5	32	20	5.5
18	-4.5	.	2	0	2.5
19	1.2	-20	.	.	.
20	-30	11	6	1	-9.1
21	2.2	-3	8	5	-1.4
22	.	0	.	.	.
23	.	19	.	.	.
24	-4.0	-32	8	3	0.9
25	-1.3	4	11	-1	1.3
26	.	7	.	.	.
27	2.2	2	-14	-21	4.1
28	.	0	.	.	.
29	-2.8	-5	13	11	0.4
30	.	?	.	.	.

The listing continues:
no.	canonical_smiles	ALR H2O2 inh	T cruzi inh	FGF22 binding	Beta cell apopt	RanGTP-Impb inh
31	Cc1ccsc1CNn1cnnc1SCc1ccc(Cl)cc1	-2	-8	.	-6	5.9
32	CCc1ccc(Nc2nnc(SCC(=O)Nc3cccc(S(=O)(=O)NC4=NCCCCC4)c3)s2)cc1	.	2	.	5	0.3
33	CCOc1ccc(Nc2nc(Cc3nnc(SCC(=O)NCC4CCCO4)n3C)cs2)cc1 (stereo not given)	?	-10	i	0	2.1
34	CSc1ccc(CN(C)C(C)C(=O)Nc2ccc(F)c(F)c2F)cc1 (stereo not given)	-1	-7	i	-5	-0.4
35	CC(C)(C)C1=C(C#N)C(c2ccncc2)C(C#N)=C(N)O1 (stereo not given)	.	-11	i	-8	0.4
36	COc1cccc(-c2nn(C)c3sc(C(=O)N4CCN(c5ccccn5)CC4)cc23)c1	-4	9	.	44	3.1
37	CCOCCc1nnc(NC(=O)CCC2CCCCC2)s1	2	9	i	-6	3.9
38	O=C(NNc1nc2c(F)cccc2s1)c1ccc(F)cc1	-8	-13	i	0	0.7
39	CCC(=O)NC(c1ccc(C)cc1)c1cc([N+](=O)[O-])c2cccnc2c1O (stereo not given)	-98	63*	.	83*	-3.9
40	NS(=O)(=O)c1ccc(CNC(=O)c2cc(-c3cccnc3)nc3ccccc23)cc1	11	-19	i	-12	1.5
41	CCOC(=O)c1nn(-c2ccc(C)c(C)c2)cc1O	97*	-7	.	1	0.3
42	CCN(Cc1ccccc1)c1ccc(/C=C(\C#N)c2ccccn2)cc1	-16	16	.	11	6.1
43	COC(=O)[C@]1(Cc2ccccc2)N[C@H](CN(C)C(=O)COc2ccccc2)[C@@H]2C(=O)N(Cc3ccccc3)C(=O)[C@@H]21	-1	.	i	-9	.
44	CC(C)=C1C2CCC1C(C(=O)NCc1ccccc1)C2C(=O)O (stereo not given)	-9	-10	.	7	2.7
45	C(=N\N(Cc1ccccc1)c1ccccc1)/c1ccco1	12	22	i	-6	8.7

no.	AF4-AF9 inh	Calb FLC	Ecoli rRNA inh	Ecoli rRNA inh OD600	Ecoli rRNA inh RFP
31	.	-15	.	.	.
32	.	25	.	.	.
33	11	-3	-5	-7	-6.4
34	-4.6	0	-30	-40	-3.8
35	-4.4	?	15	5	-3.2
36	.	5	.	.	.
37	2.3	-11	9	12	8.4
38	-1.2	-9	-33	-35	-12
39	.	110*	.	.	.
40	2.8	-18	5	3	0.7
41	.	7	.	.	.
42	.	6	.	.	.
43	-1.1	.	-6	-6	-3.0
44	.	8	.	.	.
45	0.2	0	-1	4	0.4

Record cards, from the list above. Order of values: ALR H2O2 inh, T cruzi inh, FGF22 binding, Beta cell apopt, RanGTP-Impb inh, AF4-AF9 inh, Calb FLC, Ecoli rRNA inh, Ecoli rRNA inh OD600, Ecoli rRNA inh RFP
Profile of COc1cccc(-c2nn(C)c3sc(C(=O)N4CCN(c5ccccn5)CC4)cc23)c1 : -4, 9, ., 44, 3.1, ., 5, ., ., .
Profile of Cc1cc(Cl)ccc1Oc1nccc(N(C)C)c1C#N : 0, 9, i, 1, 6.9, -30, 11, 6, 1, -9.1
Profile of CCOC(=O)c1nn(-c2ccc(C)c(C)c2)cc1O : 97*, -7, ., 1, 0.3, ., 7, ., ., .
Profile of Cc1cc2occ(CC(=O)N(C)CC(=O)Nc3ccccc3Br)c2cc1C : -21, -3, ., -3, -1.7, -0.8, -1, -30, -36, -6.4

Additional compounds
no.	canonical_smiles	ALR H2O2 inh	T cruzi inh	FGF22 binding	Beta cell apopt	RanGTP-Impb inh
46	COCCCNC(=O)Cn1c(=O)n(CC(=O)NCCc2ccc(OC)c(OC)c2)c(=O)c2sccc21	2	9	i	-2	0.3
47	Cc1cc(NC(=O)C(=O)NCCN2CCN(S(C)(=O)=O)CC2)ccc1Br	2	-4	i	14	.
48	O=C(NC1CCN(Cc2ccccc2)CC1)c1cccc(Br)c1	-5	29	i	3	-3.2
49	COc1ccc(-c2nc(C#N)c(NCCCN3CCOCC3)o2)cc1	2	-5	i	-1	-0.1
50	COCCNC(=O)C(=O)Nc1cc2c3c(c1)C(C)C(=O)N3CCC2 (stereo not given)	-6	-14	i	6	4.3
51	COc1cccc(Oc2ccc(S(=O)(=O)N3CCCC3)cc2[N+](=O)[O-])c1	3	33	i	8	?
52	COc1ccnc(Oc2ccc(F)cc2)c1C(=O)N/C=N/OCc1c(Cl)cccc1Cl	-4	26	.	4	-4.3
53	CCCCn1c(NC(=O)c2ccccc2)nc2ccccc21	-4	56*	.	52	2.8
54	O=C(NNc1ccc(Cl)cc1)c1c(F)cccc1Cl	13	.	i	-6	1.1
55	COc1ccc(N2CCN(C(=O)CSc3nnc(-c4ccco4)n3C)CC2)cc1	40	9	i	-4	6.5
56	COCC(=O)Nc1cc(C)cn(Cc2ccc(F)cc2)c1=O	-16	5	i	-3	-0.1

no.	AF4-AF9 inh	Calb FLC	Ecoli rRNA inh	Ecoli rRNA inh OD600	Ecoli rRNA inh RFP
46	-18	-2	13	6	0.7
47	-1.3	-9	16	11	1.2
48	-7.0	1	5	5	-0.8
49	1.1	0	-5	-4	-1.7
50	0.4	-6	4	-2	-2.5
51	3.5	31	-3	-3	-3.5
52	.	-31	.	.	.
53	.	40	.	.	.
54	0.8	83*	10	12	-0.9
55	1.2	17	0	0	0.8
56	0.4	-2	3	-6	1.3

From PubChem BioAssay
